Screens from PubChem.
Prx2 Sm inh: Schistosoma Mansoni Peroxiredoxins (Prx2). Schistosoma mansoni peroxiredoxin 2 (Prx2). S. mansoni Prx2 activity coupled to TGR/GSH (TGR is thioredoxin glutathione reductase), NADPH fluorescence loss, qHTS; some inactives read as strong as hits. Potency, µM. hit rate 0.07% among 65,000. AID 448, 2006; active means full or partial inhibition curve with a strong effect at the top dose; inconclusive means weaker partial or single-point curve; inactive means no accepted curve; also: series up to 57 µM; many of its hits are not listed in these tables
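Prx2 activity was followed as the loss of NADPH fluorescence (ex 365/em 450 nm), read every 30 sec for 8 min after H2O2 start. The enzyme mix (50 nM Prx2, 25 nM TGR, GSH, NADPH; pH 7.4 phosphate buffer) was incubated with compound for 15 min at room temperature first.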
LT uptake inh: qHTS Assay for Anthrax Lethal Toxin Internalization; Potency, µM (series often up to 40 µM), for inactives: at the highest dose activity change, negative = inhibition, actives largely listed as inhibitors; hit rate 0.67% among 70,000; Cells, anthrax lethal toxin internalization, FRET ratio (460/530); AID 912, 2007; active = well fitted falling ratio curve with the 530 nm signal flat; inconclusive = other ratio curves, or a change in one channel alone; inactive = flat curves in the ratio and both channels; the % refers to the ratio; also: % is scaled to controls: 0 for no effect and ±100 for the full control effect; nearly all actives have a fitted effect of over 50% in size; tested in ME-180 cells; beta-lactamase reporter
Active calls of the source: *; ? = inconclusive; / = not tested or not shown; [ ] = remark or other dose. Potency is read from the fitted curve at half-maximal effect. This is a subset; the hit share may differ from the screen's.

The line under a structure holds: Prx2 Sm inh, LT uptake inh
1. CCOC(=O)C1=C(C)C(c2ccc(OC)cc2OC)NC(=O)N1 (centres undefined)
    >57, -14%
2. COc1cccc(-c2ccc3ncnc(NCCc4c[nH]c5ccc(OC)cc45)c3c2)c1
    >57, ?
3. CC12CCC(C(=O)N3CCCCC3)(CC1=O)C2(C)C (centres undefined)
    /, -1%
4. O=C(NCc1cccc(F)c1)C1CCN(S(=O)(=O)Cc2ccccc2)CC1
    >57, 5%
5. COc1cccc(CNC(=O)C(CCSC)NS(=O)(=O)c2ccc3c(c2)oc(=O)n3C)c1 (centres undefined)
    >57, 9%
6. CCOC(=O)c1cn(CC(=O)Nc2ccc(CC)cc2)nn1
    >57, 3%
7. CSc1nc(N)c2ncn([C@@H]3O[C@@H](COP(=O)(O)OP(=O)(O)O)[C@@H](O)[C@H]3O)c2n1
    >57, 10%
8. Cc1ccc2nc(C3CCN(C(=O)NCc4ccccc4)CC3)[nH]c2c1
    >57, 11%
9. COCC(=O)n1nc(-c2ccccc2)nc1NCc1ccc(F)cc1
    >57, 1%
10. CCOC(=O)CSc1nc2c(c(=O)n(Cc3ccccc3Cl)c(=O)n2C)n1C
    >57, 8%
11. O=C(Nc1ccc2c(c1)OCO2)C(c1ccccc1)N1CCC2(CC1)OCCO2 (centres undefined)
    >57, 4%
12. Cc1ccc(CN2C3=NC(=O)CN3c3ccccc32)cc1
    >57, 9%
13. O=C(NCc1nc2ccccc2[nH]1)c1cc2ccccc2oc1=O
    >57, 2%
14. COC(=O)c1ccc(C)c(NC(=O)CN2C(=O)c3ccccc3S2(=O)=O)c1
    >57, 8%
15. Cc1cccc(N2CC(c3nc4ccccc4n3C)CC2=O)c1C (centres undefined)
    >57, -4%
16. CC(=O)Nc1ccc(S(=O)(=O)n2cnc(C)c2)cc1
    >57, 1%
17. Cc1ccc(-c2cc(-c3ccccc3Cl)c(C#N)c(N)n2)o1
    >57, ?
18. CCc1cc2c(=O)c(-c3nc4ccccc4[nH]3)coc2c(CN2CCC(C)CC2)c1O
    >57, -1%
19. CCN(CC)CCOc1cc2c(nn1)Oc1ccccc1N2C
    >57, -16%
20. O=S1(=O)N(CCN2CC=C(c3c[nH]c4cc(F)ccc34)CC2)c2cccc3c2N1CCC3
    >57, ?
21. O=C1C(=C2CCCCC2)SC(=S)N1Cc1ccco1
    >57, ?
22. Cc1ccc(-c2nc(CS(=O)CC(=O)NCCCN3CC(C)CC(C)C3)c(C)o2)cc1 (centres undefined)
    >57, -7%
23. CCCCCC(N)=O
    /, ?
24. CCOc1cc(-c2nn3cnnc3s2)cc(OCC)c1OCC
    >57, 2%
25. CCOC(=O)c1c(NC(=O)CSc2nnc(-c3ccco3)o2)sc(C(C)=O)c1C
    >57, -18%
26. CC1=C(C(=O)Nc2ccccc2)C(c2ccco2)n2ncnc2N1 (centres undefined)
    >57, 0%
27. CCOC(=O)C1(C)NC(c2ccc(OC)c(OC)c2)C2C(=O)N(CC)C(=O)C21 (centres undefined)
    >57, 7%
28. CCCC(=O)OC(=O)CCC
    /, -15%
29. Cn1c(=O)c2c(nc(CN3CCOCC3)n2CCc2ccccc2)n(C)c1=O
    >57, 18%
30. CCN1CCN(C(c2cccs2)C(C)NC(=O)c2cccnc2)CC1 (centres undefined)
    >57, -5%
31. CCCCn1c(SCc2cc(=O)n3ccsc3n2)nc2cc(C(=O)OC)ccc2c1=O
    >57, 3%
32. O=C(c1cccc(Cl)c1Cl)N1CCN(c2ccccn2)CC1
    >57, -1%
33. CC(=O)C1=C(O)C(=O)N(CC(=O)O)C1c1ccccc1Cl (centres undefined)
    >57, 0%
34. COCCn1nnnc1CN1CCC(NC(=O)c2ccc(Br)cc2)CC1
    >57, -7%
35. CS(=O)(=O)c1cccc(C(=O)Oc2ccccc2)c1
    >57, 11%
36. CN[C@@H](CC(C)C)C(=O)N[C@@H]1C(=O)N[C@H](CC(N)=O)C(=O)N[C@@H]2C(=O)N[C@H]3C(=O)N[C@H](C(=O)N[C@H](C(=O)O)c4cc(O)cc(O)c4-c4cc3ccc4O)[C@H](O)c3ccc(c(Cl)c3)Oc3cc2cc(c3O[C@H]2O[C@@H](CO)[C@@H](O)[C@@H](O)[C@@H]2O[C@@H]2C[C@](C)(N)[C@H](O)[C@H](C)O2)Oc2ccc(cc2Cl)[C@@H]1O
    >57, 0%[3.58 µM]
37. CC(CO)(CO)N=Cc1c(O)n(-c2cccc3ccccc23)c(=O)[nH]c1=O
    >57, 1%
38. Cc1c(Br)cc(C(=O)N2CCCC2)c(C)c1C
    /, -22%
39. Cc1ccc(-c2nnn(CC(=O)N(CC(=O)NC3CCCC3)c3cnc4ccccc4c3)n2)o1
    >57, -6%
40. C/C(=C(\C#N)C(=O)NCCCN1CCOCC1)N(C)C
    >57, -8%
41. CCCCCCC1=Cc2cc(OC)c(OC)cc2C(C(C(C)=O)C(=O)OCC)O1 (centres undefined)
    /, -19%[8 µM]
42. CC1CN(CC(=O)N2CCc3[nH]c4ccccc4c3C2)CC(C)O1 (centres undefined)
    >57, ?
43. O=C(Oc1ccc(-c2nnco2)cc1)N(c1ccccc1)c1ccccc1
    >57, -12%
44. Cc1nc(-c2ccccc2)cc(=O)[nH]1
    >57, 9%
45. c1cncc(CNc2ncncc2-c2cccnc2)c1
    >57, 8%
46. CCOc1ccc2[nH]c(=O)c(CN(Cc3ccco3)C(=O)c3ccc(Br)cc3)cc2c1
    >57, -11%
47. Cc1ccc2nc(-c3ccc(SCC(=O)Nc4cc(C)on4)nc3)[nH]c2c1
    >57, -4%
48. CC(C)C[C@H](N)c1nnc(S(=O)(=O)Cc2cccc(F)c2)o1
    >57, ?
49. CCC(C)NC(=O)C1CCN(C(=O)N(C)C)CC1 (centres undefined)
    >57, /
50. COc1ccc(C(=O)CSc2nnc(Cc3ccccc3)o2)cc1
    >57, 2%
51. Cc1nccn1CC(=O)O
    >57, -22%
52. c1ccc(-c2nn3c(C4COc5ccccc5O4)nnc3s2)cc1 (centres undefined)
    >57, 6%
53. CCOc1ccc(-c2nc(N)nc(C)c2-c2ccc(OC)c(OC)c2)c(O)c1
    >57, 9%
54. Cc1c(NS(=O)(=O)CC23CCC(CC2=O)C3(C)C)c(=O)n(-c2ccccc2)n1C (centres undefined)
    >57, -2%
55. O=C(O)c1ccccc1C(=O)c1cccs1
    >57, 6%
56. Nc1nonc1-c1noc(COc2ccccc2Cl)n1
    >57, -9%
57. Cc1ccc2ncccc2c1
    /, -11%
58. CCCc1cc(=O)[nH]c(SC(CC)C(=O)Nc2ccccc2C#N)n1 (centres undefined)
    >57, ?
59. Cc1cc(C(=O)COC(=O)CCc2nc3ccccc3s2)c(C)n1C
    >57, -2%
60. C=CCOC(=O)C(C(C)=O)C(NC(=O)OC)c1ccc(Cl)cc1 (centres undefined)
    /, 2%[8 µM]

Later entries
The line under a structure holds: Prx2 Sm inh, LT uptake inh
61. CCCS(=O)(=O)N1CCCC(C(=O)N2CCN(C(=O)OCC)CC2)C1 (centres undefined)
    >57, -5%
62. Clc1ccccc1-c1nc(-c2ccncc2)no1
    >57, -3%[8 µM]
63. Cc1cc2cc(CCNC(=O)c3ccc(S(=O)(=O)N4CCOCC4)cc3)c(=O)[nH]c2cc1C
    ?, -8%
64. CSc1nc(-c2ccccc2O)nc(-c2ccccc2O)n1
    >57, -9%
65. CCCCOc1ccc(C2(C)CC(=O)NC2=O)cc1 (centres undefined)
    >57, 6%
66. CCN(CC)c1ccc(NC(=O)c2nc3nc(C)cc(C(F)F)n3n2)cc1
    >57, ?
67. CC(=O)Cc1nsc(NC(=O)c2ccc(-c3ccc(Cl)c(C(F)(F)F)c3)o2)n1
    >57, -10%
68. O=C(CSc1ncccc1C(=O)O)NCCC1=CCCCC1
    >57, /
69. Cc1nn(-c2ccccc2)nc1CNC(=O)C(C)Cc1ccccc1 (centres undefined)
    /, -10%
70. COc1ccc(C2C3=C(CC(c4ccco4)CC3=O)Nc3ccccc3N2C(C)=O)cc1 (centres undefined)
    /, -9%
71. CC1CN(Cc2nc3c(c(=O)[nH]c(=O)n3C)n2CCN2CCOCC2)CC(C)O1 (centres undefined)
    >57, 6%
72. Cc1c(NC(=O)C2CCN(S(=O)(=O)c3ccccc3)CC2)c(=O)n(-c2ccccc2)n1C
    >57, -2%
73. CN(C)c1ccc(CNC(=O)CN(C)S(=O)(=O)c2cccc3cccnc23)cc1
    >57, -18%
74. O=C(NCC(c1cccnc1)N1CCOCC1)Nc1ccccc1 (centres undefined)
    >57, -12%
75. OC1CC2CC[C@H](C1)N2CCCN1c2ccccc2Sc2ccc(Cl)cc21 (some centres undefined)
    >57, ?

Down the list, as entered above.
Compounds 64 to 71 in LT uptake inh read -9%, 6%, ?, -10%, /, -10%, -9%, 6%
Compounds 64 to 71 in Prx2 Sm inh read >57, >57, >57, >57, >57, /, /, >57

Next section.
The line under a structure holds: Prx2 Sm inh, LT uptake inh
76. Cc1ccc(-c2csc(N(CC3CCCO3)C(=O)c3ccco3)n2)cc1 (centres undefined)
    >57, ?
77. COC(=O)C1=C(NC(=O)c2cccs2)CCS1
    >57, 19%
78. Cn1c(=O)c(-c2ccccc2)nc2cnc(OCc3ccccc3)nc21
    >57, ?
79. COc1ccc(C2CC(=O)c3cnc(NC(=O)c4ccccc4)nc3C2)cc1OC (centres undefined)
    >57, -25%
80. Cc1cc(-c2cc(C)c(O)c(C(C)(C)C)c2)cc(C(C)(C)C)c1O
    >57, 2.5µM*
81. O=C(NC1CCCC1)C(c1cccs1)N(C(=O)c1ccco1)c1ccc2c(c1)OCCO2 (centres undefined)
    >57, -6%
82. O=C1C(Cl)=C(Nc2ccc(S(=O)(=O)Nc3ccccn3)cc2)C(=O)c2ccccc21
    >11, 1%[8 µM]
83. COc1ccccc1C(=O)NCc1ccncc1
    >57, -3%
84. O=C(CN1CC(c2ccccc2)CC1=O)Nc1ccc(F)cc1 (centres undefined)
    >57, 0%
85. CCn1c(=O)cc(OCC(=O)N2CCN(Cc3ccc4c(c3)OCO4)CC2)c2ccccc21
    >57, -6%
86. Cc1nnc(SCc2ccc(C(=O)c3ccc(Cl)cc3)o2)n1-c1ccccc1
    >57, ?
87. Cc1ccc(-n2ncc(C#N)c2/N=C/N(C)C)cc1
    >57, -6%
88. CCOC(=O)C1C(C)N=C2SCC(=O)N2C1c1cccc(Br)c1 (centres undefined)
    /, 8%
89. COc1ccc(C(CNC(=O)Cc2cc(OC)c(OC)c(OC)c2)N2CCCC2)cc1 (centres undefined)
    >57, -3%
90. CCOC(=O)Nc1c(C)n(C)n(-c2ccccc2)c1=O
    >57, 3%

5 entries already listed, ordered by number of heavy atoms, falling:
The line under a structure holds: Prx2 Sm inh, LT uptake inh
85. CCn1c(=O)cc(OCC(=O)N2CCN(Cc3ccc4c(c3)OCO4)CC2)c2ccccc21
    >57, -6%
82. O=C1C(Cl)=C(Nc2ccc(S(=O)(=O)Nc3ccccn3)cc2)C(=O)c2ccccc21
    >11, 1%[8 µM]
86. Cc1nnc(SCc2ccc(C(=O)c3ccc(Cl)cc3)o2)n1-c1ccccc1
    >57, ?
84. O=C(CN1CC(c2ccccc2)CC1=O)Nc1ccc(F)cc1 (centres undefined)
    >57, 0%
77. COC(=O)C1=C(NC(=O)c2cccs2)CCS1
    >57, 19%

Remaining list, next part
The line under a structure holds: Prx2 Sm inh, LT uptake inh
91. CCC(=O)Nc1ccc(Cl)c(NC(=O)C(C)C)c1
    >57, ?
92. Cc1cc(C)nc(N2CCC(C(=O)NCc3cccc(C(F)(F)F)c3)CC2)n1
    >57, -2%
93. CCOc1ccc(OCC)c(NC(=O)C2CCCN(S(=O)(=O)c3c(C)n[nH]c3C)C2)c1 (centres undefined)
    >57, 20%
94. COc1ccc(-n2c(=O)c(-c3ccc(F)cc3)nc3cnc(N4CCNCC4)nc32)cc1
    >57, ?
95. CCSCCOC(=O)C1=C(C)NC(=O)NC1c1cccc(OC)c1OC (centres undefined)
    /, -5%
96. COCCNC(=O)c1noc2c1CCc1cc(OC)ccc1-2
    >57, 7%
97. Cc1cccc(CSC2=NCCN2C(=O)c2ccc(Br)o2)c1
    >57, -24%
98. COC(=O)[C@@]1(Cc2ccccc2)[C@H]2c3cc(C(=O)N(C)C)n(CCN4CNCC4=O)c3C[C@H]2CN1C(=O)c1ccccc1
    >57, 6%
99. CCOC(=O)CSc1nnc(-c2cccs2)n1-c1ccccc1
    >57, -3%
100. CN(C(=O)c1ccccc1)C1(C)CCS(=O)(=O)C1 (centres undefined)
    >57, -1%
101. C=CCn1c(SCC(=O)C(C)(C)C)nnc1-c1ccccn1
    >57, 1%
102. Cc1ccccc1C1CC(c2ccc(Br)cc2)Nc2nc(N)nn21 (centres undefined)
    >57, -15%
103. CC1CCCN(Cc2nc3c(c(=O)n(C)c(=O)n3C)n2Cc2c(F)cccc2Cl)C1 (centres undefined)
    >57, ?
104. Cc1cc(C)cc(OCC(=O)Nc2nonc2NC(=O)COc2cc(C)cc(C)c2)c1
    >57, 3%
105. COCCn1c(=O)c(-c2ccccc2)nc2cnc(N(C)C)nc21
    >57, ?
106. Cc1ccc(C(=O)NC2CC3CCCC(C2)N3C(=O)NC2CCCCC2)cc1 (centres undefined)
    >57, -12%
107. CC1CCCCN1C(=O)CSCC(=O)Nc1nc(-c2cccs2)cs1 (centres undefined)
    >57, -29%
108. N#CCCn1c(=O)c(-c2cc(F)cc(F)c2)nc2cnc(Oc3cccc(Cl)c3)nc21
    >11, ?
109. Cc1nn(-c2ccccc2)c(-c2ccccc2)c1C(=O)O
    /, -14%
110. CCCCN(C)C(=O)CS(=O)(=O)Cc1nc(-c2cccc(OC)c2)oc1C
    >57, 6%
